Choline anaer gr: inhibitors of anaerobic choline-dependent gram-negative bacterial growth; calls only; AID 1963822; Gram-negative bacterium anaerobic choline minimal medium, absorbance growth; stronger effect = lower value; many inactives read as strong as hits in the columns shown; hit rate 0.2% among 55,000;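 active means growth z-score on choline under -2 at 7 or 20 h with little or no fall on glycerol, limits in tiers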;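 further: stock transfer was 300 nL into about 50 µL; the organism is E. coli; final concentration not given here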
Choline anaer gr early: further read-out of Choline anaer gr, marked with its call; z-score; measured here: choline growth z-score, timepoint 1;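 score of optical density at 7 h as mean of two plates; lower means less growth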
* = called active by the depositor; i = inactive; & = joins results of further samples.

Choline anaer gr early	Choline anaer gr	molecule
-0.78	i	COc1ccc(NC(=O)Nc2nnc(SCC(=O)Nc3ccccc3C)s2)cc1
0	i	O=S(=O)(Nc1cccc(-c2ccc(N3CCCCC3)nn2)c1)c1ccc(F)cc1F
-0.67	i	Cc1ccn2c(=O)c(Cc3nnc(SCC(=O)NCc4nc5ccccc5[nH]4)n3C)c(C)nc2c1
-1.5	i	CN1CCc2c(sc(-n3cccc3)c2CNC(=O)NCCc2ccccc2)C1
0.37	i	COc1ccc(Nc2nc(C)c3ncn(-c4ccc(OC)c(Cl)c4)c3n2)cc1Cl
0.56	i	COC(=O)c1ccc(C(=O)OC)c(NC(=O)c2cnn3c(C(F)F)cc(-c4ccccc4)nc23)c1
0.38	i	COc1cc(CNCCSc2nnnn2C)cc(Br)c1OCc1ccc(Cl)cc1
-1.3	i	COc1cc(OC)c(N2C(=O)CN(S(C)(=O)=O)CC2(C)C(=O)NC2CCCC2)cc1Cl (stereo not given)
1.1	i	CCOC(=O)c1cc(CC)sc1NC1=NS(=O)(=O)c2ccccc21
-1.2	i	Cn1c2c(c(SCc3ccc(F)cc3)nc1=O)CCC2
0.86	i	Cc1cccc(-c2noc(-c3ccccc3OCC(=O)Nc3nc(C(C)C)cs3)n2)c1
-0.17	i	CCOC(=O)c1cc(C)n(CC2CCC(C(=O)Nc3cccc(OC)c3)CC2)c1C (stereo not given)
-2.8	i	CCOC(=O)c1nc(NCCN2CCOCC2)c2c(C)noc2n1
-1.4	i	Cc1cc(=O)[nH]c(Nc2cccc(C)c2C)n1
0.09	i	C=CCNC(=O)Cc1csc(COc2ccc(Cl)c(C)c2)n1
-0.21	i	Cc1cc(C)n2nc(CN(C(=O)C(C)C)c3ccc(F)cc3)nc2n1
0.08	i	CCCOc1ccc(CN2CCCC2c2cc(C)no2)cc1OCC (stereo not given)
-0.76	i	Cc1ccc(Cl)cc1NC(=O)c1c2c(nc3ccccc13)C(=O)N(C1CCCCC1)C2
-2.1	i	O=C(Cn1nc2c3c4c(sc3ncn2c1=O)CCCC4)NC1CCCC1
0.23	i	CCNS(=O)(=O)c1cc(C(=O)N2CCCC2)cs1
0.15	i	Cc1ccc(-c2csc(NC(=O)c3c(-c4ccc(F)cc4)nc4n3CCS4(=O)=O)n2)cc1
-0.25	i	Cc1ccccc1Nc1c(C(=O)N2CCOCC2)cnc2ccccc12
0.9	i	CC1=C(c2ccc(F)cc2)S(=O)(=O)N=C1N1CCC(NC(=O)NC(C)(C)C)CC1
-0.48	i	COc1ccc(NS(=O)(=O)c2c(C)sc(C)c2-c2cc(C(F)(F)F)on2)cc1
0.8	i	O=c1cc(N2CCN(S(=O)(=O)c3ccccc3)CC2)nc2sc(-c3ccccc3Cl)nn12

Arranged by formula weight (rising): some entries from above
Choline anaer gr early	Choline anaer gr	molecule
0.23	i	CCNS(=O)(=O)c1cc(C(=O)N2CCCC2)cs1
-0.17	i	CCOC(=O)c1cc(C)n(CC2CCC(C(=O)Nc3cccc(OC)c3)CC2)c1C (stereo not given)
0	i	O=S(=O)(Nc1cccc(-c2ccc(N3CCCCC3)nn2)c1)c1ccc(F)cc1F
0.86	i	Cc1cccc(-c2noc(-c3ccccc3OCC(=O)Nc3nc(C(C)C)cs3)n2)c1
-1.3	i	COc1cc(OC)c(N2C(=O)CN(S(C)(=O)=O)CC2(C)C(=O)NC2CCCC2)cc1Cl (stereo not given)
0.56	i	COC(=O)c1ccc(C(=O)OC)c(NC(=O)c2cnn3c(C(F)F)cc(-c4ccccc4)nc23)c1

Back to the main list, repeating the 3 entries before the break.
Choline anaer gr early	Choline anaer gr	molecule
0.9	i	CC1=C(c2ccc(F)cc2)S(=O)(=O)N=C1N1CCC(NC(=O)NC(C)(C)C)CC1
-0.48	i	COc1ccc(NS(=O)(=O)c2c(C)sc(C)c2-c2cc(C(F)(F)F)on2)cc1
0.8	i	O=c1cc(N2CCN(S(=O)(=O)c3ccccc3)CC2)nc2sc(-c3ccccc3Cl)nn12
1	i	Cc1sc(-c2nc(-c3ccccc3)no2)cc1S(=O)(=O)N1CCCCC1C (stereo not given)
-1.2	i	O=C(CN1C(=O)C2CCCC2=Nc2ccccc21)NC1CCCCC1 (stereo not given)
-0.67	i	Cc1sc(-c2nnc(C(=O)N3CCCC3)o2)cc1S(=O)(=O)NCc1cccnc1
-0.19	i	CCn1c(C2CC(=O)N(C(C)C)C2)nc2ccccc21 (stereo not given)
-1.1	i	O=C(NCCN1CCCCC1)c1ccc2nc(-c3ccc(F)cc3)c(-c3ccc(F)cc3)nc2c1
-0.19	i	COc1ccc(-c2nc3nc(C)cc(C)n3c2Nc2ccc(Cl)cc2)cc1
1.5	i	C=Cc1ccc(CN2C(=O)c3ccccc3Sc3ccc(C(=O)OCC4CCCO4)cc32)cc1 (stereo not given)
-0.09	i	O=C(CSc1nc2nc[nH]c2c(=O)[nH]1)Nc1ccc(F)cc1
-0.44	i	Cc1ccc(-c2ccc(OCCNS(C)(=O)=O)nn2)cc1
-0.11	i	COc1cccc(NC(=O)c2nn(-c3ccc(Cl)cc3)c3c(=O)n(C)cnc23)c1
-0.28	i	O=S1(=O)C[C@H](NCCc2c[nH]c3ccccc23)[C@@H](S(=O)(=O)c2ccccc2)C1
1.2	i	C=CCn1c(=O)c(C(=O)Nc2nc(C)cc(C)n2)c(O)c2ccccc21
0.05	i	O=C(Cc1ccccc1Br)N1CCC(c2nc(-c3ccc(F)cc3)no2)CC1
-0.87	i	O=C(Nc1cc(F)cc(F)c1)c1ccc(-c2ccc(F)cc2)nc1
0.15	i	COC(=O)c1cc(C)nc2c1c(=O)n(CC(=O)c1c(C)n(C)c3ccccc13)c(=O)n2C
-0.7	i	CCC(C)NC(=O)Cn1nc2n(CCC(=O)NCC(C)C)c(=O)c3ccccc3n2c1=O (stereo not given)
-0.21	i	CCc1cc(Sc2ccc(NC(=O)Nc3ccc(Br)cc3)cc2)n2nc(C)nc2n1
0.74	i	Cc1cn(C2C=CC(CO)O2)c(=O)[nH]c1=O (stereo not given)
1.1	i	COc1ccc(NC(=O)Cc2ccc(NC(=O)N3CCCCc4ccccc43)cc2)cc1
-2	i	O=C(Cn1ncn2nc3c(c2c1=O)CCCC3)Nc1ccc(F)cc1
2.6	i	COc1ccc(CCNC(=O)Cc2csc3nc(-c4ccccc4)cn23)cc1
-3.4	i	Cc1ccc(CN2CCCN(S(C)(=O)=O)CC2)s1
2	i	COc1ccc(CNc2c(C(=O)NCc3cccnc3)cnc3c2c(C)nn3-c2ccccc2)cc1
-0.19	i	CN(c1ccc2c(c1)OCO2)S(=O)(=O)c1ccsc1-c1nc(-c2ccc3c(c2)OCO3)no1
-0.37	i	CC(=O)Nc1ccc2nc3c(=O)n(C)c(=O)n(C)c3nc2c1C

2 compounds picked at random from the list so far, as already listed:
Choline anaer gr early	Choline anaer gr	molecule
-1.2	i	O=C(CN1C(=O)C2CCCC2=Nc2ccccc21)NC1CCCCC1 (stereo not given)
-0.19	i	CN(c1ccc2c(c1)OCO2)S(=O)(=O)c1ccsc1-c1nc(-c2ccc3c(c2)OCO3)no1

(cont.)
Choline anaer gr early	Choline anaer gr	molecule
0.34	i	Cc1nn(C)c(C)c1CNC(=O)c1cnn2c(C(F)F)cc(-c3ccccc3)nc12
0.54	i	CCc1noc(-c2cccn2C)n1
0.4	i	O=C(Cn1cnc2onc(-c3ccc(Cl)cc3)c2c1=O)Nc1ccc(F)cc1
-1.2	i	CCOC(=O)c1cc2n(n1)CC(C)(C(=O)NC1CCCCC1)N(c1cc(OC)cc(OC)c1)C2=O (stereo not given)
-0.9	i	CCc1cc2c(N(CC)CC)ncnc2s1
0.02	i	CNC(=O)c1ccc(-c2nc3cc(NS(=O)(=O)c4cccc(F)c4)ccc3n2C)cc1
0.22	i	CCCS(=O)(=O)N1CCCc2cc(NS(=O)(=O)c3ccc4c(c3)OCCO4)ccc21
-0.01	i	Cc1nn(-c2ccc(N3CCOCC3)nn2)c(C)c1CCC(=O)Nc1cccnc1
1.5	i	CS(=O)(=O)CCNCc1nc(-c2ccc3ncnc(Nc4ccc(OCc5cccc(F)c5)c(Cl)c4)c3c2)cs1
0.57	i	CCC(C)NC(=O)c1nc2nc(-c3ccc(C)cc3)cc(C(F)(F)F)n2n1 (stereo not given)
0.38	i	Cc1cc(C)cc(NC(=O)c2ccc(=O)n(Cc3cccc(F)c3)c2)c1
0.27	i	CCC(C)NC(=O)c1ccc(-c2nc(-c3ccccc3)no2)cc1 (stereo not given)
-0.24	i	Cc1cccc(-c2nc(CSCC(=O)N3CCN(c4ccccn4)CC3)c(C)o2)c1
-0.64	i	COc1cccc(N2CCN(C(=O)Cn3ccc4c(c(C)nn4-c4ccccc4)c3=O)CC2)c1
-0.02	i	COC(=O)c1ccc(-c2nc(C(N)=O)c3c(n2)n(-c2ccc(F)cc2)c(=O)n3C)cc1
1.6	i	O=C(CSc1nc2nc[nH]c2c(=O)[nH]1)N1CCN(c2ccccc2F)CC1
-0.02	i	O=C1CN(Cc2ccccc2F)S(=O)(=O)c2ccccc2N1Cc1ccc(Cl)cc1
-0.63	i	O=C(CN1C(=O)CCn2nc(-c3ccc(Cl)cc3)cc21)NCCCN1CCOCC1
0.35	i	Cn1cc(-c2cc3n(n2)CCCN3C(=O)CCC(=O)NCC2CCCO2)c2ccccc21 (stereo not given)
0.69	i	CCc1ccc(-c2n[nH]c(=O)c3c2CCCC3)cc1S(=O)(=O)N1CCN(c2ccccc2F)CC1
-0.87	i	O=c1[nH]c2ccc(S(=O)(=O)N3CCc4ccccc4C3)cc2[nH]1
1.2	i	O=C(Nc1ccc2c(c1)OCO2)c1cccc(-c2nc(-c3cccc(F)c3)no2)c1
0.41	i	O=S(=O)(c1cc(-c2nnc(C3CC3)o2)co1)N1CCN(c2cccc(Cl)c2)CC1
-0.08	i	O=S(=O)(Nc1ccc(Cn2cnc(-c3nc(-c4ccc(F)cc4)no3)c2)cc1)c1cccc(F)c1
0.82	i	CCC(=O)Nc1nc(-c2ccc3c(c2)NC(=O)CO3)cs1
0.3	i	CCCNC(=O)Nc1cccc(-c2noc(-c3ccc(Br)cc3)n2)c1
0.13	i	O=C(C1CC1)N1CCC(NS(=O)(=O)c2ccccc2)C1 (stereo not given)
-0.3	i	O=C(c1cnc2ccc(F)cc2c1Nc1ccc(Br)cc1)N1CCCCC1
-0.84	i	Cc1nc(C)c(-c2nc(-c3ccc4c(c3)nnn4C3CCCC3)no2)s1
-0.16	i	CCCn1cnc2c(-c3ccccc3)csc2c1=O
-0.95	i	CCOC(=O)c1cc(S(=O)(=O)N(C)CC(=O)N2CCN(C3CCCCC3)CC2)cn1C
0.11	i	O=C(NCc1noc2ccccc12)Nc1cccc(Cl)c1
0.47	i	CCOc1ccc(NC(=O)N(C)CCc2c(C)nn(CC)c2C)cc1
1.3	i	Cc1ccc(C)c(N2CCN(S(=O)(=O)c3cc(-c4cc(C(F)(F)F)on4)cs3)CC2)c1
0.83	i	CCOC(=O)c1[nH]c(C)c(CN(Cc2ccc(C)cc2)C(=O)Nc2ccc3c(c2)OCCO3)c1C
1	i	O=S(=O)(c1ccccc1Cl)N1CCN(c2ncnc3c2nnn3-c2ccccc2)CC1
-1.2	i	CC1CCc2onc(C(=O)Nc3cccnc3)c2C1 (stereo not given)
0.7	i	COc1ccc(C(=O)N2CCN(S(=O)(=O)c3ccc4[nH]c(=O)sc4c3)CC2)c(OC)c1
0.17	i	CCn1c(=O)c(C(=O)Nc2ccccc2Cl)c(O)c2ccccc21
-1.6	i	CC1CCN(C(=O)Cn2nc(C(=O)N3CCCC3)c3ccccc32)CC1
-0.62	i	O=S(=O)(NCCc1n[nH]c(Cc2ccccc2)n1)c1ccccc1F
0.73	i	O=C(Nc1ccc(Br)cc1F)c1cc(-c2ccccn2)n[nH]1
-0.98	i	Cc1cc(N(C)C)nc(N2CCN(S(=O)(=O)c3ccc(F)cc3)CC2)n1
0.03	i	COCCNC(=O)CN1c2ccccc2NC2=C(C(=O)CC(C)(C)C2)C1c1ccc(C)cc1 (stereo not given)
0.41	i	O=C(c1nnc(-c2csc(S(=O)(=O)NCc3ccccn3)c2)o1)N1CCCC1
0.71	i	Cc1ccc(C(=O)Nc2cnc3ccc(C)cn3c2=O)cc1
1.1	i	COc1cc(C2C3=C(CC(c4ccc(OC)c(OC)c4)CC3=O)Nc3onc(C)c32)ccc1O (stereo not given)
0.65	i	CCN(CC)S(=O)(=O)c1ccc2c(c1)N(CC(=O)Nc1ccc(C)c(C)c1)C(=O)CCS2
-0.45	i	O=C(Nc1cnc(N2CCN(c3ccccc3)CC2)c(C(=O)O)c1)c1ccc(Br)cc1
1.1&0.64&0.54&0.8	i	Nc1ccc(O)c(C(=O)O)c1

The list continues:
Choline anaer gr early	Choline anaer gr	molecule
3.5	i	CCCCC(=O)Nc1ccccc1-c1nc(-c2ccccc2)no1
0.28&0.33	i	Cc1ccccc1N1C(=O)c2cc(S(N)(=O)=O)c(Cl)cc2NC1C (stereo not given)
1.3	i	Cn1c(SCc2ccc(Br)cc2)nnc1-c1sc2ncccc2c1N
0.77	i	Cc1nc2cc(-c3noc(Cc4cccc5ccccc45)n3)ccc2o1
-0.84	i	COc1ccc2[nH]cc(CCNC(=O)c3cnn(-c4ccc(F)cc4)c3C3CCNCC3)c2c1
-0.39	i	CCOC(=O)c1c(S(=O)(=O)N2CCCC(C(=O)Nc3cc(C)ccn3)C2)c(C)n(CC)c1C (stereo not given)
-1.2	i	Cc1ccccc1N=C(N)Nc1ccccc1C
-0.02&0.67	i	CN(Cc1cnc2nc(N)nc(N)c2n1)c1ccc(C(=O)N[C@@H](CCC(=O)O)C(=O)O)cc1
0.13	i	N#Cc1cc2nc(O)c(O)nc2cc1[N+](=O)[O-]
-0.47	i	CCOC(=O)c1c(C)[nH]c(C)c1S(=O)(=O)N1CCC(C(=O)N2CCN(c3ccc(Cl)cc3)CC2)CC1
-0.97	i	Cn1c(=O)c(N2CCCC(C(=O)NCCc3c[nH]c4ccc(Cl)cc34)C2)nc2ccccc21 (stereo not given)
0.36	i	Cc1ccc(NS(=O)(=O)c2cc(-c3nc(C)c(C)s3)sc2C)c(Cl)c1
0.16	i	O=C(Nc1ccc2c(c1)OCO2)N1CCN(Cc2nc3ccc(Cl)cc3o2)CC1

An excerpt; the hit share may differ from the screen's.
